TRPML1 inh = human mucolipin-1 channel inhibition | TRPML1-inducible cells, Ca2+ dye fluorescence, FDSS; active compounds read low; inhibition of EC80 agonist-evoked calcium signal | 0.02% of 390,000 active | activity change, negative = inhibition, % (no concentration beside the values) | AID 624415; in the data active means activity change below about -50%; inconclusive means about -30% to -50%; inactive means above about -30%;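 note: stimulus is agonist 54-4 at its EC80 concentration; % is set by controls: 0 for no effect and ±100 for the full control effect; compound concentration not given in the record; the text of the record puts the active cut at -80%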
Target sequence (Q9GZU1 whole entry, looked up): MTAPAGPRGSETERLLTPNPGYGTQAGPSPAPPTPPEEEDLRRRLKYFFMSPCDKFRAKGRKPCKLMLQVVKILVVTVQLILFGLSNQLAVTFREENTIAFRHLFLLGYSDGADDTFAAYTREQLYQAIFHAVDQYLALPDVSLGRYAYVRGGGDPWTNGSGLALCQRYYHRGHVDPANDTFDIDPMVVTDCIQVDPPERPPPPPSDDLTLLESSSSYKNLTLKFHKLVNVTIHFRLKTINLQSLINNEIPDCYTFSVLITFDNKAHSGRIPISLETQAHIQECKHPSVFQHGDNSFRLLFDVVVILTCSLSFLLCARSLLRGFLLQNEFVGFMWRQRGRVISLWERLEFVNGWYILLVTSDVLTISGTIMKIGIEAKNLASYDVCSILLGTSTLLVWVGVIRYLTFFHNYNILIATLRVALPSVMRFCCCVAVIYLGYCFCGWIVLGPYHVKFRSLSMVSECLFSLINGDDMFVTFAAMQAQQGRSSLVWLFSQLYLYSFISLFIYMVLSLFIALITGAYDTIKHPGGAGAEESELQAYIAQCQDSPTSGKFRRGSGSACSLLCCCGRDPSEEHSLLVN
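Calcium fluorescence in TRPML1-DL cells induced overnight with Tet: a 110 s read after compound pin addition, then a 110 s antagonist read after challenge with 54-4 at 4 uM final (EC80).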
TRPML1 ag = activates the human TRPML1 channel | Q9GZU1 | TRPML1-expressing cells, Ca2+ dye fluorescence, FDSS; host cell line not named in the record; reference of the full effect not given here | activation, % (no concentration beside the values) | 0.12% of 410,000 active | AID 624414; in the data active = activation above about 50%; inconclusive = about 30% to 50%; inactive = below about 30%; note: 0% is about no effect; the text of the record puts the active cut at 80%
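Calcium fluorescence on an FDSS kinetic reader gave the read-out. Tet-induced TRPML1-DL cells were plated overnight, dye-loaded (Ca8 with quencher, 45-90 min, room temperature, dark), then read 110 s after compound addition, and again 110 s after 4uM final 54-4 (EC80).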
PINK1 expr mod = PINK1 expression modulation. 0.2% of 410,000 active. PINK1 immunofluorescence, high-content cytometry, 24 h. AID 624263. Potency, µM (doses to about 76.6 µM), inactives show at the top dose activation (PINK1 increase), hits mostly activators; active = well fitted activation curve with a large enough effect; inconclusive = small, poorly fitted or top-dose-only effect; inactive = flat fitted curve, though single readings scatter; cell line not stated here;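 note: potency is the fitted concentration of half-maximal effect; % of control where 0% means no effect; nearly all actives have a fitted effect of over 65% in size; a mitochondrial uncoupler was the plate control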
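Stable cell line treated 24 h with compounds at 5 concentrations (CCCP controls), then fixed and immunostained for PINK1 plus nuclear and cell stains; PINK1 immunofluorescence quantified by laser-scanning microplate cytometry.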
D2 ag = activates the human D2 dopamine receptor | 0.084% of 360,000 active | DiscoveRx PathHunter D2 beta-arrestin, luminescence, 90 min; 100% = 57 uM dopamine signal | AID 624465 | activation, % (concentration not given with the values); in the data active = activation above about 40%; inconclusive = about 15% to 40%; inactive = below about 15%; note: compound concentration not given in the record; the text of the record calls up to 30% inactive
Target sequence (P14416 whole entry, looked up): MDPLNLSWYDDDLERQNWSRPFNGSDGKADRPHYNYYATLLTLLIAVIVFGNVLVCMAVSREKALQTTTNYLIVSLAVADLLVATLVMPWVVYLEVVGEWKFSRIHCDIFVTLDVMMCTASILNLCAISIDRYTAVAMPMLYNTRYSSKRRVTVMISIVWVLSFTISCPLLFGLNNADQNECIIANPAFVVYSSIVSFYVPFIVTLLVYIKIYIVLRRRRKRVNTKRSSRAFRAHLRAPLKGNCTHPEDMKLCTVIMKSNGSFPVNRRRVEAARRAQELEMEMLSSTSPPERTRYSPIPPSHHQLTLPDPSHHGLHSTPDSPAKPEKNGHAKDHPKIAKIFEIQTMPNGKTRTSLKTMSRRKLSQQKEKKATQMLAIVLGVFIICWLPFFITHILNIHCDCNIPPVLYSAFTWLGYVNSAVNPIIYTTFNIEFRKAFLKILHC
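Agonist mode: compounds alone added to overnight-plated D2 PathHunter cells for 90 min at 37 C, with 57 uM final dopamine (EC100) defining full response. Beta-arrestin recruitment detected by chemiluminescent reagent, read after 1 h at ambient temperature.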
D2 PAM = potentiates the human D2 dopamine receptor allosterically; 0.23% of 360,000 active; AID 624464; potentiation, % (concentration not given with the values); P14416; DiscoveRx D2 beta-arrestin cells, luminescence, 90 min; 100% = 57 uM dopamine signal; active = potentiation of 50% or more; inconclusive = 30% to 50%; inactive = 30% or less;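 note: compound concentration not given in the record; tested on top of an EC20 dose of dopamine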
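PathHunter beta-arrestin assay in DiscoveRx D2 cells. Compounds were added with an EC20 of dopamine (50 nM final) for 90 min at 37 deg C. Luminescence was read 1 h after detection reagent, with 57 uM dopamine as the EC100 control.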
Six1-Eya2 blk = inhibitors of human Six1/Eya2 interaction; Q15475+O00167; AlphaScreen GST-Six1/His-Eya2 binding, biochemical; active compounds read low; control for the full effect not named in the record; activity change, % (no concentration beside the values); 0.56% of 360,000 active; in the data active = activity change below about -65%; inconclusive = about -30% to -65%; inactive = above about -30%; note: % is set by controls: 0 for no effect and ±100 for the full control effect
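AlphaScreen with GST-Six1 and His-Eya2 (5X mix: 250 nM and 500 nM), glutathione donor and nickel acceptor beads; buffer 50 mM Tris pH 8.0, 300 mM NaCl, 1 mM TCEP; 1 h at 37 C in the dark.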
The depositor's hits bear a star; ? = inconclusive; / = not tested or not shown; & = joins results of further samples; [ ] = another dose, or the depositor's remark.

Every second line gives: TRPML1 inh, TRPML1 ag, PINK1 expr mod, D2 ag, D2 PAM, Six1-Eya2 blk
- O=C1CC(SCc2nc3ccccc3[nH]2)C(=O)N1c1ccc(F)cc1 (configuration not stated)
  1, -1.1, 0.4%, -2.6, -3, 1
- C#CCOCCOCCOCCNc1nc(N2CCN(C(=O)[C@H](CCC(=O)O)n3cc([C@@H](N)CC(N)=O)nn3)CC2)nc(N2CCN(C(=O)[C@H](CCC(=O)O)n3cc([C@@H](N)CC(N)=O)nn3)CC2)n1
  -6, -0.7, -0.8%, -1.1, /, -18
- O=C(CNC(=O)c1ccc(Cl)cc1Cl)NCCCn1ccnc1
  6, 1.4, -0.9%, -1.7, -6, 0
- CCCNc1ncnc2c1c(-c1ccccc1)cn2-c1ccc(OCC)cc1
  18, 0.6, 1.4%, /, /, /
- C=CCSc1nnc(NC(=O)CSc2nnc(C)s2)s1
  -7, 0.6, -2.2%, 2.2, -15, 8
- O=C(OC(C(=O)NCc1ccc2c(c1)OCO2)c1ccncc1)c1ccc(Cl)nc1 (configuration not stated)
  0, 1.6, 0.6%, 1.0, -2, 16
- Cc1cccc2nc(-c3ccco3)c(Nc3ccccc3)n12
  11, 0.1, -0.5%, -3.0, -15, -12
- Cc1ccccc1C(=O)N1CCc2cc(-c3nc(NC(=O)Cc4ccc5c(c4)OCO5)sc3C)ccc21
  60, 1.1, -2.6%, 5.0, 0, 26
- Nc1nonc1-c1noc(N2CCOCC2)n1
  15, -0.3, 4.5%, -2.4, 8, -6
- COc1ccc(OC)c(NC(=O)CC2SC(=NCc3ccccc3)NC2=O)c1 (configuration not stated)
  -5, 0.1, 3.0%, -5.0, -31, -3
- Cc1cc(C)n(C(C)CNS(=O)(=O)c2ccccc2)n1 (configuration not stated)
  10, 0.8, 2.8%, 5.5, 1, 6
- OC[C@@H]1CN(Cc2ccc3c(c2)OCO3)C[C@H](n2cnc3c(N4CCOCC4)ncnc32)O1
  /, -0.7, -0.1%, -5.1, 4, 19
- COc1ccc(/C=C2\CCC(C3CCCC3)C2=O)c(OC)c1 (configuration not stated)
  /, /, 4.4%, 3.8, 3, 2
- Cn1c(=O)n(Cc2ccccc2F)c(=O)c2c1nc1n2CCN1Cc1ccco1
  -4, -0.2, 1.6%, -2.0, -16, ?
- CC(C)[C@H](NC(=O)c1ccccc1)C(=O)OCC(=O)Nc1ccc(S(=O)(=O)N2CCOCC2)cc1
  3, 0.8, 3.2%, -1.7, -14, -3
- CCNC(=S)N/N=C(\C)c1ccc2c(c1)OCCO2
  -6, 0.8, -1.8%, -1.3, -22, -4
- COc1cc(C2/C(=C(\O)c3ccc4c(c3)OCCO4)C(=O)C(=O)N2Cc2ccco2)ccc1O (configuration not stated)
  16, 0.3, -0.1%, 1.9, 2, -5
- CCOc1ccc(C2NC(=O)NC(c3ccccc3)=C2C(C)=O)cc1OC (configuration not stated)
  -4, 0.8, 16%, -3.1, -1, 0
- O=C(CCCSc1nnc(SCCCC(=O)c2ccc(F)cc2)s1)c1ccc(F)cc1
  -9, 0.7, /, 2.1, 8, 70
- CC[C@@]12C(=O)N(c3ccc(OC)cc3)C(=O)N1[C@H](c1cccc(C)c1)[C@@H]1C(=O)N(Cc3ccccc3)C(=O)[C@@H]12
  -8, -0.4, -0.3%, -0.7, -2, -1
- COc1cccc(NC(=O)CN2C(=O)COc3ccc(Cl)cc32)c1
  -7, 1.5, 1.0%, -1.0, 0, -2
- CCC(C(=O)NCCC1=CCCCC1)c1ccccc1 (configuration not stated)
  5, 0.4, -0.4%, 0.0, -23, 19
- O=C(Cn1nnc(-c2ccccc2)n1)N/N=C/c1ccc(-c2ccc(Cl)cc2)o1
  21, -0.8, -2.6%, 0.6, -10, -1
- COc1ccc(Cn2c(CCC(=O)Nc3ccc(C)cc3)nc3cccnc32)cc1
  -20&-10, 2.2&2.2, 5.0%&3.2%, 4.1, -14, 5
- CCCCc1ccc(NC(=S)NCC2CCCO2)cc1 (configuration not stated)
  4, 0.4, 2.2%, -0.7, -7, -9
- O=C(Cc1c(C(=O)O)[nH]c2ccccc12)NCCN1CCN(c2cccc(Cl)c2)CC1
  5, -0.1, 4.7%, 0.4, -8, -10
- Cc1ccc(C(=O)COC(=O)C(Cc2c[nH]c3ccccc23)NC(=O)c2ccc(Br)cc2)cc1 (configuration not stated)
  -11, 1.0, -0.2%, /, /, /
- COc1cccc(CNC(=O)C2CCC(CNS(=O)(=O)c3ccc4c(c3)CCCC(=O)N4)CC2)c1 (configuration not stated)
  -17, -0.9, -0.3%, /, /, /
- COc1ccc(-c2noc(CCC(=O)NC3CCCCCC3)n2)cc1OC
  22, -0.3, 1.2%, 2.0, -17, 8
- CN(C)CCCNC1CS(=O)(=O)CC1O (configuration not stated)
  8, -0.3, 2.1%, -3.6, -39, 19
- Nc1c(SCCC(=O)O)ccc2c1C(=O)c1ccccc1C2=O
  /, /, -0.5%, 0.2, -14, -67*
- CCOC(=O)CSC1=Nc2ccccc2C2=NC(CCC(=O)NCc3ccccc3)C(=O)N12 (configuration not stated)
  -6, -1.3, 0.5%, /, /, /
- NC(=O)c1nsc(C(=O)N(CC(=O)NC2CCCC2)c2ccc(F)c(Cl)c2)c1N
  -13, -0.3, 8.9%, 4.6, -1, 2
- CCOc1ccc(N2C(=O)CC(C(C)c3ccccc3)C2=O)cc1 (configuration not stated)
  -4, -1.1, -0.4%, 5.4, -2, 1
- COc1ccc(NC(=O)CSc2nnc(Cc3ccc(C)cc3)c(=O)n2N)cc1
  9, 2.3, 5.9%, -3.7, -69, 15
- CCCOc1ccc(C2c3c(oc4ccc(F)cc4c3=O)C(=O)N2CCc2ccc(OC)cc2)cc1 (configuration not stated)
  4, 0.4, -0.4%, /, /, /
- Cc1ccc(C(=O)N/C(=C\c2ccco2)C(=O)NCCc2c[nH]c3ccccc23)cc1
  -11, -0.6, -0.7%, -4.2, -12, -7
- CC1CCCCN1C(=O)CSc1nnc(-c2cccc(Cl)c2)o1 (configuration not stated)
  -1, -0.6, 1.6%, /, /, /
- O=S(=O)(NCCN1CCOCC1)c1cc(Cl)c(Cl)cc1Cl
  0, 0.2, 0.6%, -4.2, -1, 10
- CCC(=O)N1CCc2cc(CNS(=O)(=O)c3cccs3)ccc21
  10, 1.5, 1.7%, /, /, /

Molecules shown so far containing an NH in an aromatic ring:
Every second line gives: TRPML1 inh, TRPML1 ag, PINK1 expr mod, D2 ag, D2 PAM, Six1-Eya2 blk
- O=C1CC(SCc2nc3ccccc3[nH]2)C(=O)N1c1ccc(F)cc1 (configuration not stated)
  1, -1.1, 0.4%, -2.6, -3, 1
- O=C(Cc1c(C(=O)O)[nH]c2ccccc12)NCCN1CCN(c2cccc(Cl)c2)CC1
  5, -0.1, 4.7%, 0.4, -8, -10
- Cc1ccc(C(=O)COC(=O)C(Cc2c[nH]c3ccccc23)NC(=O)c2ccc(Br)cc2)cc1 (configuration not stated)
  -11, 1.0, -0.2%, /, /, /
- Cc1ccc(C(=O)N/C(=C\c2ccco2)C(=O)NCCc2c[nH]c3ccccc23)cc1
  -11, -0.6, -0.7%, -4.2, -12, -7

(listing goes on)
Every second line gives: TRPML1 inh, TRPML1 ag, PINK1 expr mod, D2 ag, D2 PAM, Six1-Eya2 blk
- CC(C)c1ccc(-c2nnn(CCC(=O)O)n2)cc1
  -21, 0.1, 1.3%, ?, 81*, 4
- Cc1nc(NCCO)c2nnn(Cc3ccccc3F)c2n1
  9, -0.5, -1.6%, -2.9, 9, -2
- CC(=O)Nc1ccc(N(CC(=O)NC2CCCCC2)C(=O)Cn2nnc(-c3ccccc3)n2)cc1
  -2, -0.3, 0.4%, -3.2, -4, 3
- COc1ccc(Br)c(C(=O)Nc2cc3c(cc2N2CCOCC2)n(C)c(=O)n3C)c1
  1, -1.2, 4.8%, /, /, /
- C/C(=C\c1ccc(Cl)cc1)C(=O)c1c(C)cc(C)[nH]c1=O
  12, 0.1, -1.4%, 3.0, -2, -1
- Cc1ccc(Cl)cc1N1CCN(C(=O)c2cnc(N3CCOCC3)c3ccccc23)CC1
  -9, 1.6, 1.0%, /, /, /
- COc1ccccc1CN1CC(C(=O)NCC2(O)CCCCC2)CCC1=O (configuration not stated)
  -4, -0.4, 0.7%, 0.5, -6, -2
- CCCCNc1c(N)n(CCC)c(=O)[nH]c1=O
  6, -0.2, 1.5%, 2.9, -5, -1
- COc1cccc(C2=NOC(C(=O)NCc3cccs3)C2)c1 (configuration not stated)
  4, -0.1, 12%, -3.9, 1, 8
- O=C(O)CCC(=O)N1CCc2cc(S(=O)(=O)NC3CCCC3)ccc21
  3, 1.0, 16%[38.3 µM], -1.6, 5, 3
- Cc1ccc(-c2ccc(=O)n(CCC(=O)N3CCN(Cc4ccccc4)CC3)n2)cc1
  5, 2.0, 2.1%, -1.7, -7, 5
- CCC1(CC)Cc2ccccc2-c2nc(-c3ccccc3)oc(=O)c21
  0, -0.7, 2.6%, -3.0, -4, 4
- COc1cc(CNCCO)cc(Cl)c1OCc1ccccc1Cl
  -11, 0.3, -1.1%, -4.4, -15, 28
- CN1C[C@@H]2C(c3ccccc3)C3(c4ccc(C#N)cc4)CC2(C3)[C@H]1c1ccccc1 (some centres not stated)
  5, 1.1, -1.7%, -5.4, -13, -15
- COc1ccc(Cl)cc1NC(=O)C(=O)NCc1ccncc1
  28, 2.4, -1.2%, -0.9, -4, -10
- C[C@H]1O[C@@H](O[C@H]2[C@@H](O)C[C@H](O[C@H]3[C@@H](O)C[C@H](O[C@H]4CC[C@@]5(C)[C@H](CC[C@@H]6[C@@H]5C[C@@H](O)[C@]5(C)[C@@H](C7=CC(=O)OC7)CC[C@]65O)C4)O[C@@H]3C)O[C@@H]2C)C[C@H](O)[C@@H]1O
  -6, -0.2, 0.5%, 6.6, 2, 1
- O=C(O)CCCNC(=O)CCn1nnc2ccccc2c1=O
  -4, -0.1, -0.9%, -4.2, -13, 4
- C#CCCC/C(=C\C(=O)N(C)[C@H](C(=O)N(C)[C@H](C(=O)N(C)[C@H](C(=O)N(C)[C@H](C(N)=O)C(C)C)C(C)C)C(C)C)C(C)C)OC
  -12, -0.9, -0.1%, 2.8, /, 4

Source: PubChem BioAssay
